Rango-impB inh = qHTS Assay for Inhibitors of Rango (Ran-regulated importin-beta cargo) - Importin beta complex formation; Importin subunit beta-1 (Homo sapiens), Q14974; Rango CFP/YFP FRET sensor + importin beta, 45 min; Potency, µM (top dose mostly 92.2 µM), inactives show top-dose inhibition of complex formation; actives 0.031% (n = 340,000); AID 540263, 2011; active = rising FRET ratio curve, often small or poorly fitted; inconclusive = mostly compound fluorescence or quenching in the first reads; inactive = flat curves in all reads;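 note: potency is the fitted concentration of half-maximal effect; 0% = DMSO wells and 100% = buffer wells lacking importin beta; nearly all actives have a fitted effect of over 15% in size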
Target sequence (Q14974 whole entry, looked up): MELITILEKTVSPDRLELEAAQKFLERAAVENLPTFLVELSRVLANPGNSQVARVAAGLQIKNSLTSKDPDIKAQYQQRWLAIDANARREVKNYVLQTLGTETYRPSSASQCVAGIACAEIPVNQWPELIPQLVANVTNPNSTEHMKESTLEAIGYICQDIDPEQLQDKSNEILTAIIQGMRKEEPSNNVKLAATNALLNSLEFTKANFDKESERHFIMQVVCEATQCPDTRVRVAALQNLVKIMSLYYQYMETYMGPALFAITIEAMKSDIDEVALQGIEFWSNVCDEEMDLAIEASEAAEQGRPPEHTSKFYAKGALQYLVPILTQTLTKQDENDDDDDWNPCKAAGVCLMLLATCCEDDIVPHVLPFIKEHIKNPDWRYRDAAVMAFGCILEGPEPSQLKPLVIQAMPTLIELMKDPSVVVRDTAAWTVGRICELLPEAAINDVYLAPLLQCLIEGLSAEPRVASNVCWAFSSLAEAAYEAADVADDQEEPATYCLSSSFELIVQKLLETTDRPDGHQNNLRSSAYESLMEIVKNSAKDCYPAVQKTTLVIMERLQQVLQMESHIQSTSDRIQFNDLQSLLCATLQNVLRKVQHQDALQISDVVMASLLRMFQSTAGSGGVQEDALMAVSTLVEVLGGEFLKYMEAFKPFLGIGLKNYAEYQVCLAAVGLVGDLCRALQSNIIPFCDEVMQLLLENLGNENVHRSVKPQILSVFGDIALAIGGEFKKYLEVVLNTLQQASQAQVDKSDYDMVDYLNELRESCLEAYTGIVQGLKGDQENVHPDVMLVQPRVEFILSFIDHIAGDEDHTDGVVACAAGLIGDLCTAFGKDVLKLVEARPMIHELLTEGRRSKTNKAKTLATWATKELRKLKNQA
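FRET biosensor Rango (snurportin 1 IBB between N-terminal EYFP and C-terminal Cerulean), 50 nM in PBS/1 mM DTT/0.02% Tween-20/0.1% BSA, preincubated 5 min RT with compound; 0.125 microM importin beta added, 45 min RT, CFP/YFP FRET ratio read.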
GLA inh pH 4.5 = qHTS Assay for Inhibitors of Human alpha-Galactosidase at pH 4.5. Alpha-galactosidase A (Homo sapiens), P06280. purified enzyme, 4-MU-alpha-Gal fluorescence, pH 4.5. activity change, negative = inhibition, % at 105 µM. 230,000 tested, under 10 active. AID 1467, 2008; inconclusive = small, poorly fitted or top-dose-only inhibition, or a rising curve; inactive = flat fitted curve, though single readings scatter; no compound was filed as active;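 note: 0% = full activity with enzyme and -100% = basal without enzyme; dose as in the result columns while the protocol names 77 µM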
Rango release inh = qHTS Assay for Inhibitors of RanGTP induced Rango (Ran-regulated importin-beta cargo) - Importin beta complex dissociation | actives 0.071% (n = 340,000) | Potency, µM (top dose mostly 46.1 µM), for inactives: at the highest dose activity change, negative = inhibition | Biochemical FRET Rango-importin beta, RanGTP-induced dissociation | AID 540253, 2011; active means falling FRET ratio curve, often poorly fitted, with flat reads before Ran was added; inconclusive means other falling curves, or compound fluorescence or quenching; inactive means flat or rising ratio curve;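 note: potency is the fitted concentration of half-maximal effect; % of control where 0% means no effect; nearly all actives have a fitted effect of over 45% in size; -100% = wells without RanGTP and RCC1; the record marks most hits as doubtful in a second field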
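Two FRET readings bracket the reaction: one 5 min after compound meets Rango–importin beta, another 45 min after RanGTP-RCC1 (0.6 uM Ran, 0.2 uM RCC1, 2 mM GTP) is added. Only the second defines inhibition.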
miR-21 FLuc = qHTS Assay for Modulators of miRNAs and/orActivators of miR-21. HeLa miR-21 FLuc reporter, luciferase, 48 h. AID 2288, 2010. Potency, µM (series often up to 38.3 µM), for the others: top-dose reporter change, positive = more light. 340,000 tested, under 10 active; active = well fitted rising curve with a large enough effect; inconclusive = small, poorly fitted or top-dose-only effect; inactive = no such curve, though single readings can be large or run the other way;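 note: % of control where 0% means no effect; miR-21 action dims this reporter so a rising signal means less miR-21 action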
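Luminescence from a firefly luciferase reporter carrying a miR-21 binding site downstream, stably expressed under a CMV promoter in HeLa cells that make miR-21 endogenously, reports miRNA modulation after 48 h compound exposure up to approximately 40uM final.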
* hit, by the source's call; ? = inconclusive; · = no result given; & = joins results of further samples. An excerpt; count on the stated rates, not on these rows.

Structure,Rango-impB inh,GLA inh pH 4.5,Rango release inh,miR-21 FLuc
CN(CC(=O)Nc1ccc(Cl)c(C(F)(F)F)c1)C(=O)/C=C/c1cccs1,-3.0%,·,6.2%,·
COc1ccccc1-c1nn2c(C(F)(F)F)nnc2s1,1.6%,?,16.6%,-0.5%
COc1cccc(NC(=O)N2CCN(C(=O)C(Cc3ccc(OC)c(OC)c3)NC(C)=O)CC2)c1 (stereo not given),2.6%,-8.1,1.1%,-9.0%
CCc1ccc(S(=O)(=O)Nc2cc3c(cc2C)n(C)c(=O)n3C)cc1,9.0%,·,-6.5%,24.5%
Cc1cccc(OCC(=O)Nc2c3c(nn2C(C)(C)C)CS(=O)(=O)C3)c1,-1.7%,·,0.4%,-4.9%
N#Cc1nc(COc2ccccc2)oc1N1CCOCC1,-1.7%,5.0,-2.4%,-24.9%
COc1ccccc1N1CCN(C2CCN(C(=O)c3cc(OC)c(OC)c(OC)c3)CC2)CC1,-1.6%,-8.2,-0.4%,2.3%
COc1ccc(S(=O)(=O)NNC(=O)c2cc3cc4ccccc4nc3s2)cc1,0.4%,-13.6,-2.0%,-1.2%
O=C(C[n+]1ccc(Cc2ccccc2)cc1)Nc1ccc([N+](=O)[O-])cc1Cl,-0.4%,-0.6,-4.6%,-0.2%
CCC(=O)N1CCc2cc(S(=O)(=O)NC(C(=O)NCc3ccc(F)cc3)C(C)C)ccc21 (stereo not given),-2.5%,3.0,-3.0%,-4.3%

Complete entries, quoted from the list.
CCC(=O)N1CCc2cc(S(=O)(=O)NC(C(=O)NCc3ccc(F)cc3)C(C)C)ccc21 (stereo not given) as listed: Rango-impB inh = -2.5%; GLA inh pH 4.5 = 3.0; Rango release inh = -3.0%; miR-21 FLuc = -4.3%
Cc1cccc(OCC(=O)Nc2c3c(nn2C(C)(C)C)CS(=O)(=O)C3)c1 as listed: Rango-impB inh = -1.7%; GLA inh pH 4.5 = ·; Rango release inh = 0.4%; miR-21 FLuc = -4.9%

Next section
Structure,Rango-impB inh,GLA inh pH 4.5,Rango release inh,miR-21 FLuc
Nc1ccc(NC(=O)NC2CCCCC2)cc1,-1.0%,-0.5,0.4%,-7.8%
CN(C)c1ccc(NC(=O)Cn2cc3c(n2)CCCC3)cc1,?,-6.5,14.6%,-16.6%
CN(C(=O)c1ccc(NC(=O)Cc2cccc([N+](=O)[O-])c2)cc1)C1CCCC1,-4.8%,·,13.4%,·
Cc1csc(NC(=O)CSc2nc3[nH]ncc3c(=O)[nH]2)n1,-0.6%,3.2,4.9%,9.7%
O=C(NNC(=O)c1cc2cc(OC(F)(F)F)ccc2[nH]1)c1ccc(Cl)cc1,-0.4%,-4.0,4.6%,0.8%
COCCn1cnc2c1c(=O)n(Cc1ccc(Br)cc1)c(=O)n2Cc1ccccc1,3.4%,·,27.8%,-1.7%
Cc1ccc(-n2nc3c(N4CCC(C(=O)NCc5cccc(F)c5)CC4)nnc(C)c3c2C)cc1,-0.1%,·,19.3%,11.3%
CCC(C)(C)NC(=O)C(c1ccccn1)N(C(=O)c1csnn1)c1ccccc1 (stereo not given),0.7%,-15.6,-5.3%,-3.3%
O=C(CCCN1C(=O)S/C(=C/C=C/c2ccccc2)C1=O)Nc1ccc(C(=O)O)cc1,1.1%,·,-18.4%,-2.8%
Fc1ccc(OCc2nc(-c3ccc(Br)o3)no2)c(F)c1,-4.1%,-19.5,1.9%,-40.4%
NC(CSC1(c2cccc3ccccc23)c2ccccc2-c2ccccc21)C(=O)O (stereo not given),-0.1%,·,-10.1%,·
Cc1ccccc1N(C(=O)Cc1ccsc1)C(C(=O)NC1CCCCC1)c1ccc(F)cc1 (stereo not given),3.6%,-2.4,-2.6%,-6.1%
S=C(Cc1ccc(-c2ccccc2)cc1)N1CCOCC1,2.1%,·,4.2%,·
Cc1ccccc1CNC(=O)Cn1ccc2cc(S(=O)(=O)N3CCCCCC3)ccc21,1.1%,·,2.4%,1.7%
Cc1cccc(NC(=O)c2snc3c(=O)[nH]cnc23)c1,·,3.8,·,-8.9%
O=CNNC(=O)c1cccc([N+](=O)[O-])c1,-3.5%,-2.3,?,-1.9%
CC(=O)Nc1ccc(-c2nnn(CC(=O)c3ccccc3)n2)cc1Cl,0.4%,0.9,-6.8%,-20.3%
COc1cccc(-n2c(SCC(=O)N3CCOCC3)nnc2-c2c[nH]c3ccccc23)c1,-2.4%,-0.3,-5.1%,-14.1%
Oc1cc(CNC2CCCCC2)c(O)cc1CNC1CCCCC1,?,·,-8.2%,·
O=C(CSc1nnc(-c2c[nH]c3ccccc23)o1)N1c2ccccc2CCc2ccccc21,0.2%,3.2,18.9%,21.8%
CCS(=O)(=O)C1=NSC2=NC(=O)/C(=C\c3ccc(OC(=O)c4ccco4)cc3)C(=N)N21,?,·,?,0.1%
COc1cc(C(=O)Nc2ccc(S(=O)(=O)Nc3onc(C)c3C)cc2)cc(OC)c1OC,?,4.2,21.7%,3.6%
CCOc1ccc(-c2[nH]nc3c2C(c2ccc4c(c2)OCO4)C(C#N)=C(N)O3)cc1OC (stereo not given),-1.4%,-8.9,-0.6%,-4.6%
O=C(NC(=O)C(F)(F)F)Nc1ccc(S(=O)(=O)Nc2nccs2)cc1,0.0%,·,4.4%,-2.6%
Cc1cc(C)nc(NC(=O)CSc2nc3cc(Cl)ccc3s2)n1,-0.2%,0.0,2.2%,-0.3%
COc1ccc(-n2nc3c(N4CCC(C(=O)NCc5ccccc5C)CC4)nnc(C)c3c2C)cc1,1.9%,·,22.2%,2.0%&-0.7%
COc1ccc(NS(=O)(=O)c2cccc(C(=O)NCc3ccccc3CN3CCCC3)c2)cc1,2.2%,·,33.4%,·
Cc1cc(NC(=O)CSc2nnnn2Cc2ccccc2)no1,-2.9%,7.0,0.3%,-3.8%
O=c1ccn([C@@H]2O[C@H](COS(=O)(=O)O)[C@@H](O)[C@H]2O)c(=O)[nH]1,-2.6%,·,5.1%,·
CCN(CC)C(=O)N1CCN(S(=O)(=O)c2ccccc2)CC1,-3.1%,5.4,0.2%,-1.8%
CC(C)C[C@@H]1CN=C(N)N1C[C@@H]1CCCN1C[C@@H](C(C)C)N1C[C@@H](Cc2ccccc2)N(CCc2ccc(Cl)c(Cl)c2)C1=N,0.6%,·,-4.3%,·
CCCSc1nc(N2CCCC2)c2c(c1C#N)CC(C)(C)OC2,1.5%,-8.4,8.4%,-13.1%
C/C(=N\Nc1ccccn1)c1ccc(S(=O)(=O)NCc2ccco2)cc1,-3.9%,-12.9,-9.0%,-15.2%
Nc1nc(SCc2ccccc2[N+](=O)[O-])c2ncn(Cc3ccccc3)c2n1,0.1%,·,-19.5%,·
O=C(NC(=S)NC(CO)Cc1ccccc1)c1ccc(F)cc1 (stereo not given),-0.2%,·,0.1%,-59.4%
C[C@H](CO)N1C[C@H](C)[C@@H](CN(C)S(=O)(=O)c2ccc(F)cc2)Oc2ccc(NC(=O)CCN3CCOCC3)cc2C1=O,-1.0%,·,-3.6%,·
O=C(CSc1nc(-c2ccco2)cc(C(F)(F)F)n1)N1CCc2ccccc2C1,-0.3%,-14.3,1.0%,-7.7%
O=C(COC(=O)CNS(=O)(=O)/C=C/c1ccccc1)NC1CCS(=O)(=O)C1 (stereo not given),1.9%,-7.9,-4.8%,0.0%
Cc1ccc(OCC(=O)N2CCc3ccccc32)c([N+](=O)[O-])n1,-3.3%,4.8,-6.2%,-30.9%
COc1ccc(NC(=O)NC2(C(=O)N3CCN(C)CC3)CCCCC2)cc1,-4.3%,·,-18.0%,-9.9%
Cc1ccc(C)c(OCCC(=O)OCC(=O)NCc2ccc(F)cc2)c1,2.4%,·,-1.2%,0.0%
NC(=O)C(Cc1ccccc1)NC(=O)C12CC3CC(CC(C3)C1)C2 (stereo not given),-0.5%,·,1.2%,-5.9%
O=C(CN1C(=O)NC2(CCc3ccccc32)C1=O)Nc1ccc(N2CCOCC2)cc1 (stereo not given),1.3%,5.8,-9.1%,-0.1%
Cc1ccccc1-c1cc(C(=O)Nc2sc(C(=O)OC(C)C)c(C)c2C#N)c2ccccc2n1,0.8%,-8.7,-1.2%,?
CCOc1ccc(NC(=O)NC2CC(=O)N(c3ccc(OC)cc3)C2)cc1 (stereo not given),-2.9%,5.2,-3.2%,1.0%
CCOC(=O)c1c(-c2ccc(C)cc2)csc1NC(=O)CCN1CCOCC1,3.3%,-2.8,7.1%,14.4%
CCS(=O)(=O)c1ncc(Cl)c(C(=O)Nc2ccccc2OC)n1,-1.4%,·,7.3%,-0.6%
O=C(CN(Cc1ccccc1)C1=NCCS1)c1ccccc1,-4.4%,0.8,23.6%,-5.4%
NC(=O)[C@@H]1CCCN1C(=O)c1cc(COc2ccc3c(c2)CCCC3)on1,-0.3%,·,-1.0%,-31.2%
O=[N+]([O-])c1cccc(/C=C/c2nc(C=Nc3ccc4ccccc4c3)c(O)o2)c1,?,-14.4,-18.7%,-3.1%

Additional entries follow:
Structure,Rango-impB inh,GLA inh pH 4.5,Rango release inh,miR-21 FLuc
NS(=O)(=O)c1ccc(CCNC(=O)CN2CCN(S(=O)(=O)c3ccccc3F)CC2)cc1,3.3%,·,-9.4%,·
Cc1ccc(NC2Sc3ccccc3NC2=O)cc1 (stereo not given),-0.9%,-0.7,15.5%,1.2%
CCn1c(SCC(=O)N2CCCCC2C)nnc1-c1ccco1 (stereo not given),3.8%,·,23.5%,-0.2%
O=C(COc1ccccc1Cl)Nc1ccccc1C(=O)NC1CC1,0.2%,·,-0.6%,·
CCOC(=O)C1=C(C)NC(=O)C1CC(=O)Nc1ccccc1 (stereo not given),·,11.6,·,-18.7%
COc1ccc(C)cc1S(=O)(=O)N1CCC2(CC1)OCCN2S(=O)(=O)c1ccccc1,0.1%,·,0.7%,·
COc1ccc(OC)c(C(C[N+](=O)[O-])c2c(C)cc3ccccn23)c1 (stereo not given),0.2%,·,-15.7%,13.3%
C/C(CCc1ccc2c(c1)OCO2)=N\NC(=O)c1ccccc1Br,2.5%,-14.0,7.7%,-12.5%
Cc1ccc(S(=O)(=O)C(C#N)=C2N(C)c3ccccc3N2C)cc1,-4.7%,-9.6,-2.0%,-4.3%
Nc1ccc(C(=O)C(=O)c2ccc(N)cc2)cc1,2.5%,-4.1,-10.0%,-10.2%
Nn1c(SCC(=O)Nc2ccc(F)cc2)nnc1-c1cccnc1,-0.3%,1.7,-5.2%,-9.6%
O=C(Nc1ccc(C(F)(F)F)cc1)N1CCN(C(=O)c2ccco2)CC1,-0.4%,·,12.6%,-0.1%
O=S(=O)(NCCc1ccccc1)c1cccc(S(=O)(=O)N2CCOCC2)c1,-3.3%,-0.9,16.4%,-5.6%
CCN(CC(=O)NCc1ccc(F)cc1)C(=O)CCNS(=O)(=O)c1cccc(C)c1,0.4%,·,2.1%,·
Cc1ccc(CN2C(=O)CCC2C(=O)N2CCN(c3ccccc3)CC2)cc1 (stereo not given),6.0%,2.0,0.6%,2.5%
O=S(=O)(/C=C/c1ccccc1)N1CCN(c2nc(-c3ccccc3)nc3ccccc23)CC1,-0.8%,-0.7,4.2%,-6.3%
COc1cccc(-c2cc(C(=O)NCCCN3CCOCC3)no2)c1,-0.2%,·,-18.1%,-8.5%
COc1ccc(/C(O)=C2\C(=O)C(=O)N(c3cc(C)on3)C2c2ccc(OC)c(OC)c2)cc1OC (stereo not given),3.2%,-2.8,-9.1%,-7.9%
COc1ccc(/C=N/NC(=O)CC(=O)NCc2cccnc2)cc1[N+](=O)[O-],5.6%,·,-1.0%,-4.4%
O=C(Nc1nccs1)c1cc(-c2ccco2)nc2ccccc12,?,-4.6,-4.0%,5.4%
